# Arbovirus anti – antivirals against arbovirus infection | 0.37% of 200,000 active | arbovirus infection cell-based antiviral screen | inhibition, % at 10 µM;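 active means inhibition from about 30%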;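 further: bluetongue infection of BSR cells; cell survival read as ATP light after 72 h; 0% = infected wells without compound and 100% = uninfected wells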
# RecA intein inh – Mtb RecA intein splicing inhibition. P9WHJ3. cell-free RecA intein splicing, fluorescence. inhibition, %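 (about 9 µM by stock and volumes)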. 0.75% of 290,000 active; in the data active means inhibition above about 30%; inconclusive means no clear call, values can overlap the other calls;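 further: 0% = vehicle wells and 100% = reference inhibitor control wells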
# Target sequence (P9WHJ3 whole entry, looked up): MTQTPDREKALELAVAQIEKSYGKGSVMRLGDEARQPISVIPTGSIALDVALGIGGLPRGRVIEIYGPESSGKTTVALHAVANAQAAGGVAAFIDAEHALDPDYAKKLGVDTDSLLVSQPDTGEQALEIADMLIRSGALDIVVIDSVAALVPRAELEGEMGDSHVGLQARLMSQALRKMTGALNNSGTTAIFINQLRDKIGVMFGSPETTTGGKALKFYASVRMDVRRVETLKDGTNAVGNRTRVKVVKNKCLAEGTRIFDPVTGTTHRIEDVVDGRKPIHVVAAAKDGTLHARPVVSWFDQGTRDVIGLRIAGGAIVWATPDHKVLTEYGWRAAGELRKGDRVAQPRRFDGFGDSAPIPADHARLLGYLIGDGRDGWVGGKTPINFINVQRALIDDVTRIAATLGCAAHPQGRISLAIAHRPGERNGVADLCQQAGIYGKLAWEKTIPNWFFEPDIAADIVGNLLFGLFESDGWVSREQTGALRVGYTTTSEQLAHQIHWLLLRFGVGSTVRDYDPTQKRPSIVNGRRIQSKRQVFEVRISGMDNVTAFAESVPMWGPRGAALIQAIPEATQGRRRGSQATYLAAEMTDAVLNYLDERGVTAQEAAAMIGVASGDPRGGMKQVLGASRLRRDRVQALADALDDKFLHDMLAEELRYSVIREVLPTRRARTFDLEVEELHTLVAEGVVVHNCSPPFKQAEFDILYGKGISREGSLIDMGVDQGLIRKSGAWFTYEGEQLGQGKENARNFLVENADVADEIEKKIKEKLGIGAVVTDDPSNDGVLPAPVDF
# Mtb growth – M. tuberculosis H37Rv growth inhibitors, H37Rv strain (AID 1626) | M. tuberculosis H37Rv growth inhibition; higher % means a stronger effect | one-dose inhibition, % at 10 µM; IC50 in µM for titrated hits | 0.95% of 220,000 active;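 active means confirmed in a dose series; inconclusive means inhibition above 80% but not taken into the dose series; inactive means below 80% or under 30% at every dose of the series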;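 further: bacteria incubated seven days before Alamar blue readout; 0% = bacteria only wells and 100% = bacteria with antibiotic wells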
# YopH PTP inh – blocks Yersinia enterocolitica YopH tyrosine phosphatase. AID 898. fluorescence Ex485/Em525. 0.16% of 140,000 active. inhibition, %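 (about 10 µM by stock and volumes)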;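 active means inhibition of 50% or more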;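 further: controls were vehicle for no effect and minimum signal wells for full effect; inactives centre near -20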
# Mtb bLac sens – beta-lactam sensitization of Mtb H37Rv; M. tuberculosis H37Rv growth with meropenem, percent inhibition; hits of this screen are not shown here; inhibition, % at 25 µM; 0.27% of 330,000 active; AID 434955;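 active means about 74% or more and at least 40 points above the plate without the antibiotic, then above 30% in a dose series; inconclusive means first-round hits that could not be retested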;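 further: growth measured after seven days incubation then overnight dye step; 0% = bacteria only wells and 100% = bacteria with antibiotic; twin plates without the antibiotic show which effects depend on it; some results filed as inactive read as strong as hits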
# Arbovirus anti repeat – second read-out of Arbovirus anti, no call of its own (marks repeat the call); inhibition, %; measured here: 10K subset replicate screen; many hits read low in the repeat;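 first of two repeat runs on a subset; 0% = infected and 100% = uninfected wells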
# The depositor's hits bear a star; ? = inconclusive; . = no result given; & = joins results of further samples.
SMILES,Arbovirus anti,RecA intein inh,Mtb growth,YopH PTP inh,Mtb bLac sens,others
COc1ccc(CCN(C)C(=O)CCNC(=O)c2ccc(Br)cc2)cc1OC,.,0.1,.,.,-3,
Cc1ccc(OCC(=O)NNC(=O)CSc2ncnc3sc(C)c(C)c23)cc1,3,-1.9,-8%,.,1,
Cc1ccc(C)c(NC(=S)NCCCN2CCOCC2)c1,8,1.6,1%,.,-14,
Cc1ccn2c(=O)nc(SCC(=O)N3N=C(c4cccs4)CC3c3ccc(F)cc3)nc2c1 (centres undefined),.,12,.,.,3,
CC(=O)N1N=C(c2ccc(C)o2)CC1c1ccc(F)cc1 (centres undefined),9,1.9,8%,-39,-3,
COc1ccc(Nc2cc(C(=O)NCCCOC(C)C)c3ccccc3n2)c(OC)c1,.,-4.2,.,.,5,
COc1ccc(-c2noc(CCC(=O)NCC3CCCO3)n2)cc1OC (centres undefined),.,-1.6,.,.,6,
Cc1cc(OCc2cc(C(=O)NCc3csc(C(C)C)n3)no2)cc(C)c1Cl,.,4.0,.,.,?,
Cc1ccc2nc3c(cc2c1)c(C)nn3-c1ccccc1,.,-34,.,.,-1,
CC(O)CNc1nc2ccccc2n1CC(=O)NCCc1ccc(Cl)cc1 (centres undefined),5,1.1,2%,-12,83,
CC1CN(C(=O)c2cc3cc([N+](=O)[O-])ccc3s2)CC(C)O1 (centres undefined),12,4.7,-6%,.,-5,
CC(=O)c1cccc(NC(=O)N2CCC(NC(=O)C34CC5CC(CC(C5)C3)C4)CC2)c1,-8,1.1,-4%,.,-2,
CC(=O)N1CCCc2ccccc21,-6,0.1,-4%,-26,17,
c1ccc(-n2nnc(-c3cccnc3)n2)cc1,3,-0.8,-8%,.,1,
CC1CCN(CCNC(=O)C2CCCN(S(=O)(=O)c3cccc4nsnc34)C2)CC1 (centres undefined),.,-0.3,.,.,-6,
O=C(/C=C/c1ccc(F)cc1)N1CCN(S(=O)(=O)/C=C/c2ccccc2)CC1,-18,0.0,0%,.,-9,
O=C(NNC(=O)c1cc(-c2ccco2)nc2ccccc12)c1ccccc1,.,-3.5,1%,.,-4,
CNC(=O)c1ccccc1NC(=O)c1cccc(S(=O)(=O)N2CCC(C)CC2)c1,-12,4.4,8%,-32,-6,
Cc1[nH]nc2c1C(c1ccc3c(c1)OCO3)C(C#N)=C(N)O2 (centres undefined),3,67*,-10%,-23,4,
CC(C)(C)C(=O)Cn1c[n+](N)cn1,-4,-0.3,1%,-22,-7,

# Quoted at random: 3 records from the list, in no set order.
SMILES,Arbovirus anti,RecA intein inh,Mtb growth,YopH PTP inh,Mtb bLac sens,others
COc1ccc(CCN(C)C(=O)CCNC(=O)c2ccc(Br)cc2)cc1OC,.,0.1,.,.,-3,
Cc1ccc2nc3c(cc2c1)c(C)nn3-c1ccccc1,.,-34,.,.,-1,
COc1ccc(-c2noc(CCC(=O)NCC3CCCO3)n2)cc1OC (centres undefined),.,-1.6,.,.,6,

# (next part)
SMILES,Arbovirus anti,RecA intein inh,Mtb growth,YopH PTP inh,Mtb bLac sens,others
CCOC(=O)c1sc(/N=C/c2ccc(O)cc2O)cc1C,-9,-1.0,58%,-12,46,
CCc1ccc(C(CC(=O)c2ccc(Cl)cc2)C(=O)O)cc1 (centres undefined),7,1.2,1%,-43,7,
Cc1ccc(OCC(=O)N2c3ccccc3NC(=O)C2(C)C)c([N+](=O)[O-])n1,12,2.8,0%,.,-2,
Cc1cccc(C(=O)NCC2CCCO2)c1 (centres undefined),6,0.0,-2%,-7,2,
COc1ccc(C(=O)Nc2nc(-c3ccc([N+](=O)[O-])cc3)c(-c3ccc(OC)cc3)s2)cc1,-2,-4.4,-16%,-24,0,
CSc1nc(-c2ccccc2)nc2c1COC(C)(C)C2,-7,2.9,-5%,-26,10,
Cc1ccc(C)c(N2CN(Cc3cccnc3)CNC2=S)c1,6,-2.0,3%,-24,0,
CCCCCCOc1ccc(C(=O)O)cc1C#N,3,1.0,2%,-28,24,
COC(=O)C1CCCCN1C(=O)CCc1nnc(CCc2c[nH]c3ccccc23)o1 (centres undefined),-14,-1.8,6%,.,-5,
O=C(Nc1nnc(-c2ccc3c(c2)CCCC3)o1)c1ccccc1Cl,-27,3.2,?,-20,97,Arbovirus anti repeat=-19
CCc1nc2ccccc2n1CC1CC1(Cl)Cl (centres undefined),-1,1.7,0%,.,-4,
CCOC(=O)C1CCN(C(=O)c2ccc(NS(=O)(=O)c3ccc(F)cc3C)cc2)CC1,6,-1.4,0%,.,0,
CCn1cc(S(=O)(=O)CC(=O)Nc2ccc(OC)cc2)c2ccccc21,1,0.9,2%,8,-6,
C=CCN1C(=O)C2C(C(=O)NCc3ccccc3)C3C=CC2(O3)C1C(=O)NC(C)(C)C (centres undefined),9,-0.4,-1%,-14,-5,
CCOC(=O)c1nnsc1NC(=O)Nc1ccc(OC)cc1,13,3.8,18%,.,-2,
COc1cccc(/C=N/NC(=S)NC2CC3CC2C2C=CCC32)c1O (centres undefined),.,-1.7,7%,.,60,
CC(=O)N1c2ccccc2Sc2ccccc21,.,-3.1,.,.,-4,
O=C(CN1CCCC1)Nc1ccc(Cl)cc1C(F)(F)F,2,6.8,2%,.,2,
CS(=O)(=O)N1CCCC(C(=O)NCc2ccccc2Cl)C1 (centres undefined),1,-0.9,-2%,-179,-7,
COC(=O)c1ccccc1NC(=O)c1ccc(COc2ccccc2)o1,10,.,5%,-27,68,

# Arranged by length of the SMILES (low to high): part of the list above.
SMILES,Arbovirus anti,RecA intein inh,Mtb growth,YopH PTP inh,Mtb bLac sens,others
CCOC(=O)c1nnsc1NC(=O)Nc1ccc(OC)cc1,13,3.8,18%,.,-2,
CCc1ccc(C(CC(=O)c2ccc(Cl)cc2)C(=O)O)cc1 (centres undefined),7,1.2,1%,-43,7,
COC(=O)C1CCCCN1C(=O)CCc1nnc(CCc2c[nH]c3ccccc23)o1 (centres undefined),-14,-1.8,6%,.,-5,

# Entries shown so far that contain an NH in an aromatic ring, in the order listed:
SMILES,Arbovirus anti,RecA intein inh,Mtb growth,YopH PTP inh,Mtb bLac sens,others
Cc1[nH]nc2c1C(c1ccc3c(c1)OCO3)C(C#N)=C(N)O2 (centres undefined),3,67*,-10%,-23,4,
COC(=O)C1CCCCN1C(=O)CCc1nnc(CCc2c[nH]c3ccccc23)o1 (centres undefined),-14,-1.8,6%,.,-5,

# (listing goes on)
SMILES,Arbovirus anti,RecA intein inh,Mtb growth,YopH PTP inh,Mtb bLac sens,others
CCC(=O)Nc1nc(NCc2ccccc2OC)n(-c2ccccc2)n1,.,-3.2,.,.,7,
CCOC(=O)C1CCCCN1C(=O)CCc1c(C)nc2ncnn2c1C (centres undefined),1,-1.8,-6%,-45,-24,
O=C(c1cccs1)N1CCCC(c2nc(-c3ccc(F)cc3)no2)C1 (centres undefined),6,0.8,1%,-29,-4,
O=C(Nc1c2c(nn1-c1ccc(F)cc1)CS(=O)(=O)C2)c1ccc2c(c1)OCO2,.,2.1,.,.,-5,
OC(CN1C2=NCCN2c2ccccc21)c1ccc(Br)cc1 (centres undefined),1,1.0,-7%,-46,-6,
Cc1c(N=C2SCC(=O)N2/N=C/c2ccccc2)c(=O)n(-c2ccccc2)n1C,-11,-1.2,-2%,-16,-7,
COc1ccc(-c2cc(C(F)(F)F)nc(N3CCN(c4ccc(F)cc4)CC3)n2)cc1OC,4,-3.8,.,-1,.,
CC(C)(C)NC(=O)CCN(/N=C/c1ccc([N+](=O)[O-])o1)C1=NS(=O)(=O)c2ccccc21,-5,.,2%,-21,-1,
Cc1cc(/C=C2/C(=O)NC(=O)N(C)C2=O)c(C)n1-c1ccccc1,4,-5.1,6%,.,-4,
CC(C)C(C)(C#N)NC(=O)CSc1nnc(-c2ccccc2)o1 (centres undefined),0,-0.4,-12%,-2,-6,
Cc1cccc(NC(=O)CSc2nc(C)nc3c2c(=O)n(C)c(=O)n3C)c1,2,.,8%,.,.,
O=c1[nH]c2cc3c(cc2cc1CN(CCO)S(=O)(=O)c1ccccc1)OCCO3,.,-2.2,4%,.,-5,
c1cncc(-c2nc(N3CCOCC3)c3ccccc3n2)c1,-10,.,-2%,-11,1,
CC(Cc1ccccc1)C(=O)N(C)Cc1cccnc1 (centres undefined),3,-0.1,-2%,-9,-9,
O=C(CCNC(=O)c1ccc([N+](=O)[O-])cc1)NCCc1ccc(Cl)cc1,.,-1.0,.,.,4,
COc1cc(NC(=O)CSc2nc3cc(C)ccc3cc2C)c(C(=O)O)cc1OC,10,-0.9,-6%,-34,-3,
COc1ccc(Cl)cc1NC(=O)CN1CCc2ccccc21,2,-0.1,9%,.,1,
Cc1nc(SCc2ccccc2)[nH]c(=O)c1CC(=O)OCC(C)C,.,-0.2,.,.,-3,
Cc1ccc(NC(=O)CNc2cccc(S(=O)(=O)N3CCOCC3)c2)cc1F,.,-1.9,.,.,-4,
CC(C)(C)NC(=O)CN(C(=O)CNC(=O)c1cccs1)c1ccc2c(c1)OCCO2,-5,1.1,5%,1,6,
CN(C)c1nn(C(=O)Nc2ccc(Cl)cc2Cl)cc1-c1ccccc1,-3,10,-3%,-30,1,
Cc1cc(Oc2ccc(=O)n(C)n2)nc(Oc2ccc(=O)n(C)n2)n1,1,-0.4,1%,-37,1,
CCn1c(SCC(=O)N2CCc3ccccc32)nnc1-c1ccncc1,1,0.7,-7%,2,-4,
O=C(c1nnsc1S(=O)c1ccc(Cl)cc1)N1CCOCC1 (centres undefined),-38,26,8.9µM*,.,.,
Cc1ccccc1OCCC(=O)Nc1c(C)n(C)n(-c2ccccc2)c1=O,5,1.9,-15%,-9,0,
CC(C)c1nnc(SCC(=O)N2CCc3ccccc32)n1C,2,-0.8,-5%,-6,0,
O=C(Cn1cc(/C=N/NC(=O)c2cccc3ccccc23)c2ccccc21)Nc1ccc(F)cc1,.,2.0,21%,.,-3,
COc1cccc(CC2(CO)CCN(Cc3ccc(NC(C)=O)cc3)CC2)c1,0,0.8,-14%,.,-2,
COc1ccc(/C=C2\CN(Cc3ccccc3)C/C(=C\c3ccc(OC)cc3OC)C2=O)c(OC)c1,-25,1.2,.,-18,-3,
Cc1ccc(CS(=O)Cc2ccc(C(=O)NCc3cccs3)o2)cc1 (centres undefined),.,0.3,.,.,-2,
Cc1nn2c(-c3ccc(Cl)cc3Cl)nnc2s1,-3,0.8,-7%,-27,-13,
O=C(CNC(=O)c1ccc(Cl)cc1)NC(CO)c1ccccc1 (centres undefined),.,-2.4,.,.,3,
NCCNC(=O)Cn1c(=O)c2c3c(sc2n(Cc2ccccc2)c1=O)CCCC3,.,1.9,.,.,4,
CCCCCN1C=CC=C/C1=C\C=C(C#N)C#N,.,-12,5%,.,27,
CCCCC(=O)N(Cc1ccc(-c2ccccc2-c2nn[nH]n2)cc1)[C@H](C(=O)O)C(C)C,4,1.5,-7%&-6%,.,-2,
O=S(=O)(Nc1ccc(C(F)(F)F)cn1)c1ccccc1,.,1.7,.,.,-3,
c1ccc(CSCc2cn3ccccc3n2)cc1,14,.,-3%,.,-3,
Cc1ccc(S(=O)(=O)N2CCOCC2)cc1NC(=O)COC(=O)CNC(=O)c1ccc(Oc2ccccc2)cc1,4,2.5,0%,-20,2,
COc1cccc(NC(=O)Cc2cccs2)c1,-1,-7.9,2%,-27,-4,
O=C(Nc1cccc(NC(=O)C2CC3CCCC(C2)C3=O)n1)C1CC2CCCC(C1)C2=O (centres undefined),4,0.3,-2%,-1,-11,
Cc1cccc(OP(=O)(Nc2ccc(F)cc2)Oc2cccc(C)c2)c1,-11,-1.2,-23%,.,10,
O=C(CNC(=O)c1cccc(F)c1)N/N=C/c1cccnc1,.,-2.7,.,.,0,
CSCCC(C(=O)O)N1C(=O)c2ccc(C(=O)O)cc2C1=O (centres undefined),3,-0.9,-1%,-22,-7,
O=C1Nc2ccccc2C1=Nc1ccc(Cl)cc1,.,1.2,.,.,-5,
COc1cc(NC(=O)C/C(C)=N/NC(=O)Cc2ccccc2)c(OC)cc1Cl,-4,2.1,9%,-3,2,

# Copied from the listing (7 entries):
SMILES,Arbovirus anti,RecA intein inh,Mtb growth,YopH PTP inh,Mtb bLac sens,others
COc1cccc(NC(=O)Cc2cccs2)c1,-1,-7.9,2%,-27,-4,
O=C(Nc1cccc(NC(=O)C2CC3CCCC(C2)C3=O)n1)C1CC2CCCC(C1)C2=O (centres undefined),4,0.3,-2%,-1,-11,
Cc1cccc(OP(=O)(Nc2ccc(F)cc2)Oc2cccc(C)c2)c1,-11,-1.2,-23%,.,10,
O=C(CNC(=O)c1cccc(F)c1)N/N=C/c1cccnc1,.,-2.7,.,.,0,
CSCCC(C(=O)O)N1C(=O)c2ccc(C(=O)O)cc2C1=O (centres undefined),3,-0.9,-1%,-22,-7,
O=C1Nc2ccccc2C1=Nc1ccc(Cl)cc1,.,1.2,.,.,-5,
COc1cc(NC(=O)C/C(C)=N/NC(=O)Cc2ccccc2)c(OC)cc1Cl,-4,2.1,9%,-3,2,

# Source: PubChem BioAssay

# Some of the compounds tested. The share of hits here may be higher or lower than overall.
